Bioassay records deposited in PubChem by National Center for Advancing Translational Sciences (NCATS).
gsp ag: gsp mutant agonism; gsp mutant cells, cAMP HTRF, 30 min; control for the full effect not named in the record; Potency, µM (doses to about 76.9 µM), for inactives: at the top dose activation (cAMP increase), usual class: activators; actives 0.13% (n = 340,000); active = well fitted activation curve with a large enough effect; inconclusive = small, poorly fitted or top-dose-only effect, or another doubt; inactive = no such curve, though single readings can be large or run the other way; cell line not stated here;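 also: phosphodiesterase inhibitor Ro 20-1724 added with compounds to block cAMP breakdown; potency is read from the fitted curve at half-maximal effect; nearly all actives have a fitted effect of over 60% in size; about a fifth of the inactives were tested at one dose only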
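Cells in DMEM/10% FBS with G418 were pretreated with compounds in DMSO plus […] (300 uM stock) for 30 min at 37C. cAMP was measured by HTRF (cAMP-d2 plus anti-cAMP antibody-K) after 30 min at room temperature.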
Menin-MLL FL inh: menin-MLL binding inhibition, fluorescein peptide. Fluorescence polarization, fluorescein-MLL peptide displacement from menin. AID 1766. FP activity change, % at 61.4 µM. 290,000 tested, under 10 active; inconclusive = falling polarisation curve, or a change in total fluorescence; inactive = total fluorescence flat and polarisation flat or rising; no compound was filed as active; the % refers to the polarisation; negative = inhibition;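 also: % of control where 0% means no effect; inhibitors lower the polarisation; unlabelled MLL peptide was the positive control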
gsp antagonist: gsp mutant antagonism | gsp-mutant cells, cAMP HTRF, 30 min; control for the full effect not named in the record | AID 624288 | Potency, µM (series often up to 76.9 µM), without a hit: at the highest dose activity change, negative = inhibition, hits mostly inhibitors | actives 0.4% (n = 340,000); active = falling curve of any shape with a large fitted effect; inconclusive = falling curve, mostly with a smaller effect; inactive = flat or rising curve; cell line not stated here;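 also: intracellular cAMP measured with PDE inhibitor Ro 20-1724 present during compound exposure; potency is read from the fitted curve at half-maximal effect; % is scaled to controls: 0 for no effect and ±100 for the full control effect; nearly all actives have a fitted effect of over 65% in size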
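HTRF cAMP measurement after 30 min RT detection following 30 min, 37C compound treatment alongside […] (added as 300 uM solution) in G418-selected cells seeded at 2000/well and grown 16–24 h.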
ClpP mod: qHTS Assay for Activators of ClpP; ATP-dependent Clp protease proteolytic subunit (Bacillus subtilis (strain 168)), P80244; purified B. subtilis ClpP, FRET peptide cleavage, 20 min; Potency, µM (series often up to 57.5 µM), inactives show at the top dose activity change, negative = active; actives 1.9% (n = 340,000); AID 651965, 2013; active = well fitted falling curve with a large enough effect; inconclusive = small, poorly fitted or top-dose-only effect; inactive = no such curve, though single readings can be large or run the other way; also: potency is read from the fitted curve at half-maximal effect; the source files actives as falling curves though it sought activators and does not explain the sign; nearly all actives have a fitted effect of over 65% in size; many hits overshoot -100%
Target sequence (P80244 whole entry, looked up): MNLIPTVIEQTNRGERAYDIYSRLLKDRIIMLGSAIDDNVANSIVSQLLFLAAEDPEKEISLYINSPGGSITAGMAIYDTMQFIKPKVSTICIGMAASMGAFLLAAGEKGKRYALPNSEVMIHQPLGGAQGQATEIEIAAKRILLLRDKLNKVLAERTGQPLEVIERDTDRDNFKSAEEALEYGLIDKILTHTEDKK
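FRET quenching reversal measured ClpP activation: 10 microg/mL B. subtilis ClpP at pH 8 with the FRET-FV decapeptide, read at 430 nm after 320 nm excitation. The 20-min minus 0-min signal was scaled between DMSO/no-enzyme wells and ADEP (5.8 microM final).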
PINK1 expr mod: modulators of PINK1 expression; PINK1 immunofluorescence, high-content cytometry, 24 h; Potency, µM (series often up to 76.6 µM), for inactives: top-dose activation (PINK1 increase), most hits filed as activators; actives 0.2% (n = 410,000); active = well fitted activation curve with a large enough effect; inconclusive = small, poorly fitted or top-dose-only effect; inactive = flat fitted curve, though single readings scatter; cell line not stated here;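 also: potency is read from the fitted curve at half-maximal effect; % of control where 0% means no effect; nearly all actives have a fitted effect of over 65% in size; a mitochondrial uncoupler was the plate control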
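Stable cell line, 250 cells/well, 12 h attachment; compounds pinned at 5 concentrations, 24 h; CCCP control. Fixed with nuclear dye, primary antibodies 12 h at 10 degrees C, secondary plus cell stain; laser-scanning cytometer read.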
D2 ag: activates the human D2 dopamine receptor; P14416; DiscoveRx PathHunter D2 beta-arrestin, luminescence, 90 min; 100% = 57 uM dopamine signal; activation, % (test concentration not listed); actives 0.084% (n = 360,000); AID 624465; in the data active = activation above about 40%; inconclusive = about 15% to 40%; inactive = below about 15%; also: compound concentration not given in the record; the text of the record calls up to 30% inactive
Target sequence (P14416 whole entry, looked up): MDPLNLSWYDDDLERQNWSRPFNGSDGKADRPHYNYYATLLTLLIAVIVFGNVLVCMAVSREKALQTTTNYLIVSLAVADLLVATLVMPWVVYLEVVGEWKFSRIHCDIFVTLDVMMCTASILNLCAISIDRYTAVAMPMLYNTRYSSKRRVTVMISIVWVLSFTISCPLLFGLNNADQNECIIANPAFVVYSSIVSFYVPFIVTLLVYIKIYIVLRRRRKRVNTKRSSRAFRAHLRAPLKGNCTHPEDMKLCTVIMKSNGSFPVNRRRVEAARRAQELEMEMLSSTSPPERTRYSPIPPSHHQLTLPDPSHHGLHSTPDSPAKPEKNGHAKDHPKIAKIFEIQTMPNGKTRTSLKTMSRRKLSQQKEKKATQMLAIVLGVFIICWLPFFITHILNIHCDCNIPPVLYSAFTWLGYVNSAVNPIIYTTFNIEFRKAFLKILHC
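DiscoveRx PathHunter D2 beta-arrestin cells (2,100/well) attached overnight, then compound-stimulated 90 min at 37 C in HBSS/10 mM HEPES/0.1% Tween-20 buffer; beta-galactosidase complementation read by luminescence after 1 h at ambient temperature. Dopamine 57 uM final (EC100) as control.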
Sfp inh: blocks B. subtilis Sfp PPTase activity | Biochemical Sfp PPTase activity, qHTS | actives 3.5% (n = 310,000) | Potency, µM, for the others: max response, negative = inhibition, usual class: inhibitors | AID 1490; active = well fitted inhibition curve with a large enough effect; inconclusive = small, poorly fitted or top-dose-only effect, or another doubt; inactive = no such curve, though single readings can be large or run the other way;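 also: the enzyme is Sfp with the accession as filed and its product quenches rhodamine fluorescence; potency is read from the fitted curve at half-maximal effect; 0% = enzyme reaction without inhibitor and -100% = no enzyme wells; top concentration of the series not given in the record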
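With Hepes-Na pH 7.6 buffer containing 10 mM MgCl2, Sfp (15 nM) modified BHQ-2-YbbR (12.5 uM) using rhodamine-CoA (5 uM). Two reads 30 minutes apart at 525/598 nm yielded each well's rate.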
An asterisk follows results filed as active; u = inconclusive; x = not tested or not shown; & = joins results of further samples; [ ] = another dose, or the depositor's remark. Rows are unselected; 5.1% or so of the library scored in one or more.

Results follow in this order: gsp ag, Menin-MLL FL inh, gsp antagonist, ClpP mod, PINK1 expr mod, D2 ag, Sfp inh
COc1ccc(N(CC(=O)Nc2ccccc2C(F)(F)F)C2=NC3CS(=O)(=O)CC3S2)cc1 (stereo not drawn)
→ 2%, -1.6, -3%, 0.2%, 0.9%, -0.5, 7%
Cn1c2c(c(=O)n(C)c1=O)C(C(F)(F)F)(C(F)(F)F)N=C(CCC1CCCCC1)N2
→ 11%[15.4 µM], x, 8%, -4.4%, u, 4.0, -5%
O=C(NCc1nc2ccccc2[nH]1)C1=C[C@@H](C2CC2)C[C@@H](OCc2ccc(CO)cc2)O1
→ x, 0.7, -2%, -2.4%, 1.3%, 0.9, -12%
CCc1cccc(OCCCn2ccnc2)c1
→ 2%[15.4 µM], 6.1, -15%, 0.0%, -1.1%, -2.1, -2%
CCOc1ccc(OCC)c(NC(=O)CCNS(=O)(=O)c2cc(Br)cnc2N)c1
→ 13%, 3.8, -8%, -9.6%, 0.6%, -1.4, 1%
CCCC(=O)Nc1cc(-c2nn(C)c(=O)c3ccccc23)ccc1N1CCCCC1
→ -87%[inhibitor], x, 2%, -3.7%, 2.4%[38.3 µM], -1.8, x
Cc1ccc(Sc2ncccc2NC(=O)c2ccccc2Cl)cc1
→ 24%[15.4 µM], 2.5, -19%, -0.3%, 4.9%, 0.0, 3%
O=C(N=C1SC2CS(=O)(=O)CC2N1CCc1ccccc1)C1CCCCC1 (stereo not drawn)
→ u, x, 0%, 1.7%, 6.4%, 3.0, 18%
O=C(/C=C/c1ccco1)N1CCCC(c2ccccc2)C1 (stereo not drawn)
→ -1%, 6.6, -6%, 1.7%, 1.4%, -0.5, u
Cn1c(N)c(C(=O)COC(=O)Cc2c(F)cccc2Cl)c(=O)n(C)c1=O
→ -8%, x, 6%, -0.7%, 0.5%, 3.0, x
c1ccc(CC2CCN(c3nc4ccccc4n4nnnc34)CC2)cc1
→ -4%, 2.0, 4%, 16µM*, 6.3%, -1.6, -6%
CC(C)Oc1cc(C(=O)N2CCC(N3CCCCC3)CC2)ccc1Nc1nnc(Cl)c(Nc2ccccc2S(C)(=O)=O)n1
→ x, x, -2%, -0.3%, 0.4%, -0.3, x
Cc1ccc(C(=O)c2sc3nc4c(cc3c2N)CCC4)cc1
→ -7%, 6.4, 8%, -1.9%, 7.9%, -0.3, -5%
Cc1nc(N2CCN(c3ccccn3)CC2)c2c(C)c(C(=O)N3CCN(c4ccccc4F)CC3)sc2n1
→ 15%, x, u, x, 0.7%, -1.4, -18%
CCCNC(=O)c1ccccc1NS(=O)(=O)c1ccc2c(c1)OCCO2
→ -11%, 0.5, -19%, u, 0.3%, -0.7, -9%
COC(=O)c1cc(NC(=O)CN2CCc3cc4c(cc3C2)OCCCO4)cc(C(=O)OC)c1
→ x, -1.5, -4%, 0.4%, -0.6%, 4.3, 12%
CC(=O)Nc1ccc(OCc2nnc(-c3ccccc3)o2)cc1
→ u, u, -3%, x, -1.4%, -1.6, 13%
CCN(Cc1cc2ccccc2[nH]c1=O)C(=O)c1cccnc1
→ -7%, 1.3, 1%, -28%, -3.6%[38.3 µM], 3.0, 12%
Cc1cccc(NC(=S)NCCc2ccc3c(c2)OCCO3)c1C
→ -3%[15.4 µM], -0.1, -2%, 3.4%, -0.4%, -6.9, 5%
Cc1ccsc1C(=O)Nc1ccc2c(c1)OCCO2
→ u, 1.4, 5%, -2.3%, -2.3%, -2.1, 12%
COC(=O)c1ccc(C23CC4(C2)[C@H](CN(CC2CCCCC2)[C@@H]4c2ccccc2)C3c2ccccc2)cc1 (stereo partly drawn)
→ x, u, -4%, -2.7%, 12%, -1.7, -11%&5%
CCN(C(=O)C1CCN(c2nc(-c3ccc(OC)cc3)no2)CC1)c1ccccc1
→ 39%, 0.8, u, 1.5%, -1.1%, -1.7, -22%
CN1CCc2c(sc3c2c(=O)n(-c2ccccc2)c2nncn32)C1
→ 24%, -11, -8%, -18%, -0.2%, 0.8, -24%
CCOc1ccc(CCNC(=O)CN2C(=O)CCSc3ccccc32)cc1OCC
→ u, 0.9, 0%, x, -0.8%, -3.2, 19%
COc1nc(Nc2cccc(C)c2)nc(N2CCCCC2)n1
→ 11%, 4.3, -11%, -2.7%, 19%, -1.8, -1%
OC[C@@H]1CN(Cc2ccc(F)cc2)C[C@H](n2cnc3c(NC4CCCC4)ncnc32)O1
→ x, x, x, -1.0%, 2.2%, 3.2, x
CNC(=O)c1cc(Nc2nnc(C)c3ccccc23)ccc1OC
→ -1%, 0.9, -16%, 3.4%, 1.2%, 1.4, 0%
CC(Oc1ccccc1)C(=O)N=C1SC2CS(=O)(=O)CC2N1CCc1ccccc1 (stereo not drawn)
→ -69%[inhibitor], x, -18%, -0.9%, 0.3%, -9.3, -7%
Cc1cc(C)nc(NC2=NCC(=O)N2c2cc(Cl)cc(Cl)c2)n1
→ -2%, 3.8, -6%, 1.8%, -1.1%, 0.7, 17%
CC(=O)NCCc1nc2ccccc2n1CCOc1ccc(C)cc1
→ u, 0.9, 18%, 1.8%, 2.0%, -4.6, 0%
COCCCNC(=S)N/N=C/c1ccc2ccccc2c1
→ -3%[15.4 µM], 2.3, -2%, -3.2%, -1.7%, 1.9, -12%
CC(=O)Nc1ccc(NC(=O)C2CCN(C(=O)NC3CCCCC3)CC2)cc1
→ -16%[15.4 µM], 1.0, 8%, x, 1.4%, -1.4, 14%
CCN(CC)CCCN(C(=O)c1ccc(Br)cc1)c1nc(-c2ccc(OC)cc2)cs1
→ -32%[inhibitor], -6.9, 8%, x, -1.5%, 0.7, -25%
COc1ccccc1C(=O)NN(C)C1=NS(=O)(=O)c2ccccc21
→ u, 3.0, -10%, 0.2%, 0.0%, -4.4, 11%
COc1ccc(-n2cc(C(=O)c3ccccc3O)cn2)cc1
→ -11%[15.4 µM], -2.7, -29%, x, 1.4%, 2.6, -26%
CC(Sc1nnc(-c2ccccc2F)n1C1CC1)C(=O)N1CCCC1 (stereo not drawn)
→ 15%, x, 1%, -1.2%, 1.7%, -3.0, x
COc1ccc(Cc2nc3ccc(C(=O)NCc4cc(C)no4)cc3o2)cc1
→ -16%, -6.0, -13%, -2.1%, 0.2%, -0.7, 6%
Cn1cnc([N+](=O)[O-])c1SCC(O)CN1CCCCC1 (stereo not drawn)
→ -28%, -1.3, 8%, 0.9%, -0.2%, -4.1, 7%
CC(Oc1ccccc1F)C(=O)NCCN1CCCCC1 (stereo not drawn)
→ 25%, 3.7, 10%, 0.1%, 2.7%, -11, 11%
Cc1cccc([C@@H]2[C@@H]3C(=O)N(Cc4ccccc4)C(=O)[C@@H]3[C@]3(C)C(=O)N(c4ccc(Br)cc4)C(=O)N23)c1
→ -18%, -0.1, -9%, 0.9%, 1.4%, 1.4, 1%
N=c1c2c3c(sc2ncn1CCCN1CCOCC1)CCCCC3
→ u, 0.3, 13%, 0.9%, -2.1%[38.3 µM], -2.9, 15%
Cc1ccc(S(=O)(=O)CCC(=O)N(C)c2c(N)n(Cc3ccccc3)c(=O)[nH]c2=O)cc1
→ -2%[15.4 µM], x, 8%, x, 4.5%, -1.8, x
CCOC(=O)C1Cn2c(nc3c(c2=O)C(C)(C)Cc2ccccc2-3)S1 (stereo not drawn)
→ -5%, 0.9, -20%, -17%, -0.3%, -1.0, 3%
O=C(Nc1ccc(N2CCN(C(=O)c3ccco3)CC2)cc1)C(c1ccccc1)c1ccccc1
→ -41%[inhibitor], 0.1, -12%, 1.2%, -0.7%, -2.3, -12%
CC(C)N1CCN(Cc2nc(-c3ccccc3)cs2)CC1CCO (stereo not drawn)
→ 21%, 3.0, 10%, x, -0.9%, -5.4, -5%
CCn1c(SCC(=O)N(C)C)nc2cc(S(=O)(=O)N3CCCCC3)ccc21
→ u, x, -9%, 1.6%, -0.6%, 1.2, x
Cc1ccc(S(=O)(=O)N2CCC(C(=O)NCCCN3CCCC3=O)CC2)cc1C
→ -3%[15.4 µM], x, 11%, 0.5%, 1.7%, 3.8, 13%
Nc1ccccc1OCCOCCOc1ccccc1N
→ -29%[15.4 µM], 3.9, 1%, 22µM*, 1.2%, 0.6, 2%
CCOc1cc(NC(=O)c2ccco2)c(OCC)cc1NC(=O)c1cc(OC)c(OC)c(OC)c1
→ 7%, 4.1, 9%, 30%, 4.1%, 0.6, 16%
NS(=O)(=O)c1cccc(NS(=O)(=O)c2ccc(/C=C/C(=O)O)cc2)c1
→ -2%[15.4 µM], 0.6, 7%, x, -0.5%, -3.3, 21%
CCOC(=O)C1(Cc2ccc(Cl)cc2)CCN(C(=O)CCc2ccncc2)CC1
→ -2%, 0.2, -9%, x, 2.6%, 6.8, -1%
COc1ccc(C(O)P(=O)(OC(C)C)OC(C)C)cc1OC (stereo not drawn)
→ u, 0.2, 8%, -1.3%, -1.4%, -0.1, 9%
CC(/C=N\Nc1nnc2c(n1)[nH]c1c(C)cccc12)=C\c1ccco1
→ -2%, -1.0, 7%, -0.7%, 14%[38.3 µM], -3.9, -5%
O=S(=O)(Nc1ccc(-n2cccc2)cc1)c1ccc(Cl)c(Cl)c1
→ -23%, 4.4, -22%, -0.8%, 23%, -2.3, 11%
Nc1ncnc2c1ncn2[C@@H]1O[C@H](CNC(=O)[C@@H](N)CO)[C@@H](O)[C@H]1O
→ x, x, 7%, 5.1%, 0.4%, 1.4, x
COc1ccc(NC(=O)CN2C(=O)CSc3ncccc32)cc1
→ -25%, -1.0, 4%, 1.4%, 3.1%, -1.3, 4%
O=C(O)C1CCCN1C(=O)C12CC3CC(CC(C3)C1)C2 (stereo not drawn)
→ -62%[inhibitor], -2.1, 13%, x, 0.3%, 4.0, 19%
CN(C(=O)CSc1nnc(-c2ccc(OC(F)F)cc2)n1N)C1CCS(=O)(=O)C1 (stereo not drawn)
→ -34%[inhibitor], x, 7%, -14%, 4.0%, 1.8, x
COc1cccc(NC(=O)Nc2cccc(C)n2)c1
→ -24%, 0.7, -19%, -0.3%, -0.3%, 4.1, -8%
